RecA intein inh = Mtb RecA intein splicing inhibition | cell-free RecA intein splicing, fluorescence | inhibition, %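 (about 9 µM by stock and volumes)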 | 290,000 compounds, 0.75% hits | AID 2221; in the data active = inhibition above about 30%; inconclusive = no clear call, values can overlap the other calls;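 also: 0% = vehicle wells and 100% = reference inhibitor control wells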
Target sequence (P9WHJ3 whole entry, looked up): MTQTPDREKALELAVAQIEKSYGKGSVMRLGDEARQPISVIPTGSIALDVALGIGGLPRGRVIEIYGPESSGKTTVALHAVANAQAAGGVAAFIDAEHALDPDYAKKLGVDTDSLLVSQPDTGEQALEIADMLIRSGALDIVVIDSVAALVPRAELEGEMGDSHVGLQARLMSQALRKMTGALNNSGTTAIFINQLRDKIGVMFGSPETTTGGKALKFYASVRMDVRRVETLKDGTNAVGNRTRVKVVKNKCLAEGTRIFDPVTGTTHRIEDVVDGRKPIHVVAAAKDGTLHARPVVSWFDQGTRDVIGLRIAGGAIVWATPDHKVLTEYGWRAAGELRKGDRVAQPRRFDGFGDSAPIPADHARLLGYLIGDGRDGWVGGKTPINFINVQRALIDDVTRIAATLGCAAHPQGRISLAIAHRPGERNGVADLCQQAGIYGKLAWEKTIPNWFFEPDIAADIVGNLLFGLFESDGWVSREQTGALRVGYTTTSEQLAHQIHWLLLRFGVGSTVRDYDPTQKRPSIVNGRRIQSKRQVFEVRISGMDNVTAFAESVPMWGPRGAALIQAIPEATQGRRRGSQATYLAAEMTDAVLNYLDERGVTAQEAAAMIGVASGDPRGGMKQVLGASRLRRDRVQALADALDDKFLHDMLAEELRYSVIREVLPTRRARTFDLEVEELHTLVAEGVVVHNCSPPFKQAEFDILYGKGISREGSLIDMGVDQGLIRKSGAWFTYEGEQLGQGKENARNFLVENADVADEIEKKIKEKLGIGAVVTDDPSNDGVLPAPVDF
YopH PTP inh = inhibitors of Yersinia enterocolitica YopH tyrosine phosphatase | fluorescence Ex485/Em525 | 140,000 compounds, 0.16% hits | inhibition, %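 (about 10 µM by stock and volumes)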;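 active = inhibition of 50% or more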;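 also: controls were vehicle for no effect and minimum signal wells for full effect; inactives centre near -20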
Arbovirus inh = arbovirus infection inhibition; arbovirus infection cell-based antiviral screen; inhibition, % at 10 µM; 200,000 compounds, 0.37% hits; AID 1251;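 active = inhibition from about 30%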;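 also: bluetongue infection of BSR cells; cell survival read as ATP light after 72 h; 0% = infected wells without compound and 100% = uninfected wells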
Mtb growth = M. tuberculosis H37Rv growth inhibitors, H37Rv strain (AID 1626) | M. tuberculosis H37Rv growth inhibition; higher % means a stronger effect | 220,000 compounds, 0.95% hits | inhibition, % at 10 µM, or IC50 in µM where a hit was titrated;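 active = confirmed in a dose series; inconclusive = inhibition above 80% but not taken into the dose series; inactive = below 80% or under 30% at every dose of the series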;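 also: bacteria incubated seven days before Alamar blue readout; 0% = bacteria only wells and 100% = bacteria with antibiotic wells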
Mtb betalactam = beta-lactam sensitization of Mtb H37Rv; M. tuberculosis H37Rv growth with meropenem, percent inhibition; hits of this screen are not shown here; AID 434955; inhibition, % at 25 µM; 330,000 compounds, 0.27% hits;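 active = about 74% or more and at least 40 points above the plate without the antibiotic, then above 30% in a dose series; inconclusive = first-round hits that could not be retested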;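 also: growth measured after seven days incubation then overnight dye step; 0% = bacteria only wells and 100% = bacteria with antibiotic; twin plates without the antibiotic show which effects depend on it; some results filed as inactive read as strong as hits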
Arbovirus inh repeat = second read-out of Arbovirus inh, no call of its own (marks repeat the call); inhibition, %; measured here: 10K subset replicate screen; many hits read low in the repeat;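 first of two repeat runs on a subset; 0% = infected and 100% = uninfected wells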
The depositor's hits bear a star; u = inconclusive; x = no result given. These rows are one share of the data; the hit share may differ from the screen's.

SMILES	RecA intein inh	YopH PTP inh	Arbovirus inh	Mtb growth	Mtb betalactam	others
Cc1sc2nc(C(C)C)nc(SCC(=O)NC3CC3)c2c1C	-2.3	x	x	x	-3
Cc1onc(C(=O)NN)c1C(=O)N1CCN(C(c2ccccc2)c2ccccc2)CC1	3.8	x	3	2%	-6
O=[N+]([O-])c1ccc(C2C3C(c4ccccc4)=NC4(CCCCC4)N32)cc1 (stereo unspecified)	-1.9	2	2	-11%	-6
NC(=S)N1OC[C@@H]2COc3ccc4ccccc4c3[C@@H]21	1.5	x	4	4%	8
O=C(c1ccc(Cn2cc(Br)cn2)o1)N1N=C(C(F)F)CC1(O)C(F)F (stereo unspecified)	-0.1	-3	2	2%	-1
CCOc1ccc(S(=O)(=O)N2CCC(C(=O)NC3CCCCC3)CC2)cc1	-0.4	x	x	x	-3
Cc1c(-c2cccs2)[n+](=O)c2c(n1[O-])CCCC2	-1.2	-10	-1	-15%	-26
O=C(NCCc1ccccc1)c1ccc([N+](=O)[O-])cc1	-0.9	-2	-1	x	1
O=C(/C=C/c1ccccc1Cl)N1CCN(c2ncccn2)CC1	2.9	-25	7	-5%	2
COc1cc(OC)cc(C(=O)OCc2cc3ccccc3[nH]c2=O)c1	-0.4	-21	7	x	-9
COc1ccc(CNC(=O)c2c(O)c3cccc4c3n(c2=O)CCC4)cc1OC	1.0	-30	5	-4%	-2
COC(=O)CCCCCN1C(=O)/C(=C\c2ccncc2)SC1=S	34*	x	x	u	99
Cc1ccc(C2CC(c3ccco3)n3nc(N)nc3N2)cc1 (stereo unspecified)	-2.4	-37	1	-5%	3	Arbovirus inh repeat=-2
Nc1ncn(C(=O)c2ccco2)n1	25	-21	3	4%	-12
Cc1cc(C)n(-c2nc3ccccc3nc2N2CCOCC2)n1	-0.4	-27	5	x	3	Arbovirus inh repeat=5
Cc1cc(C)cc(OC(=O)CN2C(=O)c3ccccc3C2=O)c1	0.8	x	x	x	0
CC(C)(CO)NCc1cccc(OCc2ccc(Cl)cc2)c1	-0.9	-28	-29	10%	-5
CC(N=c1ccccn1C(=O)Nc1cccc(C(F)(F)F)c1)c1ccco1 (stereo unspecified)	2.3	-16	2	x	2
COc1ccc(C(C(=O)NCCC(C)C)N(CCN2CCOCC2)C(=O)Cn2nnc3ccccc32)c(OC)c1 (stereo unspecified)	-2.3	x	10	-4%	-4
CS(=O)(=O)c1ccc(Cl)c(NC(=O)CCc2ccccc2)c1	-0.2	x	14	4%	-1
COCCSc1ccccc1C(=O)Nc1nncs1	1.6	23	-5	-6%	-10
CC(C)(C)c1ccc(OCC(O)CSc2ncn[nH]2)cc1 (stereo unspecified)	6.7	-8	3	-1%	-5
CN(C(=O)Cn1cc(C(F)(F)F)cc(Cl)c1=O)C1CCS(=O)(=O)C1 (stereo unspecified)	-1.1	x	x	x	-3
CCOC(=O)c1c(-c2cccs2)csc1NC(=O)CCCC(=O)O	3.5	-17	3	1%	0
CCC(=O)OCC(=O)Nc1ncc(C(F)(F)F)cc1Cl	0.4	x	x	12%	7
SMILES	RecA intein inh	YopH PTP inh	Arbovirus inh	Mtb growth	Mtb betalactam	others
CCOC(=O)c1c(C)[nH]c(C)c1S(=O)(=O)N(C)CC(=O)Nc1cccc(C)n1	-9.9	x	x	x	14
COc1ccc(CN(CCCN2CCOCC2)C(=O)Nc2ccccc2)cc1OC	3.1	-25	9	-3%	-5
CCc1ccc(NC(=O)C(=O)NNC(=O)COc2cccc(OC)c2)cc1	-1.2	-33	5	u	98
N/C(=N\OC(=O)c1cccc(Br)c1)c1ccncc1	0.7	x	1	-2%	3
COc1cc(C2c3c(oc4cc(C)c(C)cc4c3=O)C(=O)N2c2cc(C)ccn2)ccc1O (stereo unspecified)	-1.4	-8	-4	5%	9
O=C(COC(=O)c1ccc(S(=O)(=O)NCc2ccco2)cc1)c1ccccc1	0.2	-19	-8	3%	11
COCC(=O)N(Cc1cc2ccccc2[nH]c1=O)c1ccccc1OC	-2.1	-42	4	-10%	0
COc1cc(OC)cc(C(=O)Nc2ccc(S(=O)(=O)Nc3cnc4ccccc4n3)cc2)c1	0.1	x	x	x	-1
NS(=O)(=O)c1ccc(N/C=C\C(=O)c2ccc(F)cc2)cc1	-11	x	5	-10%	1
COCCCN1C2=C(C(=O)CC(C)(C)C2)C(c2ccc(O)c(OC)c2)C2=C1CC(C)(C)CC2=O	-6.4	x	x	x	1
COc1ccc(C(=O)c2oc3ccc(OC)cc3c2N)cc1	-23	-11	-1	19%	88
O=C(CSc1nnc(NC(=O)c2ccccc2)s1)NCC1CCCO1 (stereo unspecified)	1.3	x	x	x	u
COc1ccc(/C=C/C(=O)NCC(=O)N/N=C(/C)c2ccco2)cc1	-1.8	x	x	x	-1
CCOc1ccccc1NC(=S)N1CCC(c2nc3ccccc3o2)CC1	3.8	-15	3	13%	10
CCN(C(=O)c1ccc(NC(=O)c2ccco2)cc1)c1ccccc1	0.6	x	x	x	3
COC(=O)c1ccc2c(=O)n(Cc3ccc(C(=O)NC4CCCC4)cc3)c(=S)[nH]c2c1	-3.0	-1	-11	-3%	5
COc1cccc(/C=N/c2oc(-c3ccccc3)cc2C#N)c1O	4.1	38	-15	-5%	-5
COc1cc(NS(=O)(=O)c2c(C(=O)N3CCOCC3)c(C)n(C)c2C)cc(OC)c1OC	0.0	x	x	x	0
COCc1cc(=O)[nH]c(/N=C(\N)Nc2c(F)cccc2F)n1	-0.6	x	x	-9%	-10
COc1ccc(CNCC2COc3ccccc3O2)cc1 (stereo unspecified)	-5.9	x	x	x	6
COC(=O)c1ccccc1NC(=O)C(CCS(C)(=O)=O)NC(C)=O (stereo unspecified)	-0.9	-52	3	-7%	6
CC(NC(=O)c1ccc(N2CCCC2)c([N+](=O)[O-])c1)c1ccc(S(N)(=O)=O)cc1 (stereo unspecified)	-0.2	x	x	x	-3
Cc1nn(-c2ccccc2)c(Cl)c1/C=N/NC(=O)CNc1n[nH]c(=O)[nH]c1=O	4.6	x	16	-1%	6
Nc1cc(=O)[nH]c(=O)n1-c1cccc(F)c1	-3.3	x	-3	5%	-3
C/C(N)=C(/C#N)C(=O)CSc1nc2cc(Cl)ccc2s1	-0.8	-44	9	2%	6
SMILES	RecA intein inh	YopH PTP inh	Arbovirus inh	Mtb growth	Mtb betalactam	others
Cc1ccc(CN2CC(C(=O)N3CCN(S(=O)(=O)c4c(F)cccc4F)CC3)CC2=O)cc1 (stereo unspecified)	-1.8	x	x	x	-2
CSc1nsc(SCC(=O)NCc2ccc(C)cc2)n1	3.2	x	x	x	82
CCOC(=O)C1=C(CSc2n[nH]c(N)n2)NC(=O)NC1C (stereo unspecified)	-0.8	-6	4	-7%	-20
Cc1ccc(S(=O)(=O)NCC(=O)NCCc2c[nH]c3ccccc23)cc1C	2.6	x	x	x	6
O=C(CCC(=O)N(CC(=O)NC1CCCC1)C1CCCCC1)Nc1ccccn1	-0.7	x	6	-12%	4
COc1ccc(CCN2CC(C(=O)N3CCN(C(C)=O)CC3)CCC2=O)cc1 (stereo unspecified)	3.2	x	x	x	u
Cc1cc(NC(=O)CCC2COc3ccccc3O2)no1 (stereo unspecified)	2.1	26	3	-4%	-5
CC(C)(O)C#Cc1ccc(C(=O)N2CCN(C(=O)c3ccco3)CC2)cc1	-1.9	-4	-4	-7%	-7	Arbovirus inh repeat=3
O=C(NCc1ccco1)c1ccccc1-c1nc(-c2ccc(F)cc2)no1	-0.3	x	x	-3%	-2
Cc1ccc(OCC(=O)N2CCN(C(=O)c3ccco3)CC2)cc1	-0.5	x	4	8%	-8
COc1ccc(C(=O)N2CCCCCC2)cc1S(=O)(=O)N1CCOCC1	-2.6	x	x	x	-2
Cc1ccc(S[C@@H](CCN2CC[C@H](NC(=O)OCc3ccccc3)CCC2=O)c2ccccc2)cc1	5.5	x	x	x	26
CCN(CC)S(=O)(=O)c1ccc(N2CCCC2)c(NS(=O)(=O)c2ccc(OC)cc2)c1	-0.5	-28	4	2%	3
CN1CCN(c2ccc(/C=C3\C(=O)NC(=S)N(c4cccc(Br)c4)C3=O)o2)CC1	1.8	11	37*	3%	7
Cc1cc(=O)oc(C)c1C(=O)NCC1CCCO1 (stereo unspecified)	0.5	-13	12	-7%	2
CC(C)(C)c1nnc2sc(SCCN3C(=O)c4ccccc4C3=O)nn2c1=O	-2.8	-45	0	4%	6
FC(F)(F)c1cccc(Cn2nnnc2-c2cccc(C(F)(F)F)c2)c1	-1.5	1	-5	4%	-3
C#CCOCCOCCOCCNc1nc(N2CCN(C(=O)[C@H]([C@@H](C)CC)n3cc([C@@H](N)CO)nn3)CC2)nc(N2CCN(C(=O)[C@H](CCCCN)n3cc([C@@H](N)CC(C)C)nn3)CC2)n1	0.1	x	2	-3%	-3
CCOC(=O)c1cccnc1SCC(=O)NC(C)CC (stereo unspecified)	-0.5	-41	-6	0%	-6
O=C(NCc1ccccc1)N(Cc1nc2ccccc2c(=O)[nH]1)C1CCCC1	x	-46	5	-6%	-9
Cc1ccc(C(=O)NNC(=O)OC(C)(C)C)c(Cl)c1	0.4	7	4	1%	0
Cc1occc1-c1nnc(SCC(=O)NCCc2ccccc2)n1C(C)c1ccccc1 (stereo unspecified)	2.2	-16	6	9%	5
Cc1cccn2c(/C=N/OCc3cccc(F)c3)c(-c3ccc(Cl)cc3)nc12	2.8	15	-2	2%	2
COc1cc(NC(=O)CN(C)S(=O)(=O)c2ccc(-c3ccc(=O)[nH]n3)s2)cc(OC)c1	-2.4	x	x	x	-2
COc1cc(OC)cc(C(=O)NCC2CCCN(C(=O)c3oc(C)cc3C)C2)c1 (stereo unspecified)	-0.3	x	x	x	-8
SMILES	RecA intein inh	YopH PTP inh	Arbovirus inh	Mtb growth	Mtb betalactam	others
COc1ccc(/C=N/NC(=O)CC(=O)NCc2cccnc2)c(OC)c1	1.9	-33	-3	7%	-4
COc1cc(C(=O)N[C@@H](C)C(=O)N2CCC3(CC2)NCCc2[nH]cnc23)cc(OC)c1OC	-0.9	x	x	x	2
CC1CCCC(C)N1C(=S)SCC(=O)O (stereo unspecified)	-1.2	x	7	0%	-3
Cc1ccc(S(=O)(=O)Nc2nonc2C)cc1	-0.6	-46	4	x	-20
CCn1c(C)cc(/C=C2/NC(=O)N(Cc3ccccc3F)C2=O)c1C	x	-30	7	1%	-3
COC(=O)c1c(SCC(=O)NC2CCCCC2)[nH]c2ccccc2c1=O	-6.4	x	x	x	20
Cc1nn(-c2ccccc2)c(Cl)c1C(=O)N1CCN(C)CC1	-2.0	x	1	-4%	0
Nc1nnc(CC(=O)N/N=C/c2ccc([N+](=O)[O-])cc2)s1	1.0	x	x	0%	-8
Cc1cccc(C)c1NC(=S)N/N=C/c1ccc(C(=O)O)cc1	-3.4	x	x	11%	-4
CCOC(=O)N1CCN(Cc2nc3ccc([N+](=O)[O-])cc3c(=O)n2-c2cccc(OC)c2)CC1	-4.4	x	2	3%	-2
CO/N=C(/CS(=O)(=O)c1ccc(C)cc1)c1ccc(OC)cc1	3.3	-13	-8	-1%	-7
CSc1ccc(S(=O)(=O)N2CCC(C(=O)NCCN3CCOCC3)CC2)cc1	1.4	x	x	x	0
Cc1ccc2cc3cc(C(=O)NCCCN4CCCC4)oc3nc2c1	-3.6	x	x	x	4
Cc1ccccc1OCC(=O)Nc1sc(C(=O)Nc2cccc(C)c2C)c(C)c1C#N	-0.1	-23	5	-5%	-7
Fc1ccccc1CNC1CN2CCC1CC2 (stereo unspecified)	-4.3	x	5	-3%	-6
NCCCC[C@@H](C(=O)NCCCCCCCCCCC(=O)N1CCNCC1)n1cc(CCO)nn1	2.3	x	x	x	-6
Cc1cc(C(=O)OCC(=O)N2CC(=O)Nc3ccccc32)c(C)n1-c1ccc(F)cc1	-1.7	-24	2	-1%	-3
COC(=O)C(O)(CC(=O)Nc1cccc(SC)c1)C(F)(F)F (stereo unspecified)	-2.4	-23	3	-9%	3
